# HIV Env fusion – blocks HIV Env-driven cell-cell fusion; inhibition, % at 12.3 µM; AID 651610; HeLa-JRFL Env/CEM21 cell fusion, luciferase; 360,000 tested, 1.1% active;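 active = mean replicate inhibition score of at least 50 and every replicate individually at or above 50; inconclusive = only one of the two criteria met; inactive = mean below 50 and not all replicates reaching 50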;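 also: 0% = plate neutral controls and 100% = maraviroc near 300 nM; one replicate is shown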
# UUG fidelity – alters start codon recognition fidelity in yeast | S. cerevisiae UUG-firefly luciferase reporter, luminescence/redox ratio | activity score, % at 18.7 µM | 350,000 tested, 0.13% active | AID 602363;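 active = replicate mean at a twofold rise or more, about +100% in these data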;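 also: firefly luciferase made from a UUG start codon reports start codon fidelity; reporter light over untreated wells divided by growth signal over untreated wells; some hits fall short of that in this replicate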
# The depositor's hits bear a star; ? = inconclusive; [ ] = dose if it differs, or a comment. Not all compounds are listed. The share of hits here may be higher or lower than overall.
SMILES	HIV Env fusion	UUG fidelity
C[C@H](O)C#Cc1cnc2c(c1)C(=O)N([C@H](C)CO)C[C@@H](C)[C@@H](CN(C)C(=O)Nc1ccc(C(F)(F)F)cc1)O2	-13.5[16.7 µM]	36.6
Cc1ccc(S(=O)(=O)Nc2ccc3c(c2)C(=O)N([C@H](C)CO)C[C@H](C)[C@@H](CN(C)C(=O)CCCN(C)C)OCCCC[C@@H](C)O3)cc1	13.3[16.7 µM]	12.1
O=C(NCC[C@H]1CC[C@H](NC(=O)C2CCCCC2)[C@H](CO)O1)c1ccc(F)cc1	4.8[16.7 µM]	1.9
CO[C@H]1CN(C)C(=O)c2cc(NS(=O)(=O)c3cccc(Cl)c3)ccc2OC[C@H](C)NC[C@@H]1C	5.7[16.7 µM]	-3.0
C[C@H]1CN([C@@H](C)CO)S(=O)(=O)c2ccc(C#Cc3ccc(F)cc3)cc2O[C@@H]1CN(C)C(=O)CN(C)C	9.1[16.7 µM]	16.8
COc1ccc(S(=O)(=O)Nc2ccc3c(c2)C(=O)N([C@H](C)CO)C[C@H](C)[C@H](CN(C)C(=O)Nc2cccc4ccccc24)OCCCC[C@@H](C)O3)cc1	8.0[16.7 µM]	-4.1
CC(=O)N(C)C[C@H]1Oc2cc(-c3cccc(C#N)c3)ccc2S(=O)(=O)N([C@@H](C)CO)C[C@H]1C	-14.9[16.7 µM]	25.6
Cc1ccc(S(=O)(=O)Nc2cccc3c2O[C@@H](CN(C)C(=O)Nc2c(C)noc2C)[C@H](C)CN([C@H](C)CO)C3=O)cc1	-20.8[16.7 µM]	5.6
C[C@@H]1CN([C@@H](C)CO)C(=O)c2cccc(NC(=O)C3CCOCC3)c2O[C@@H]1CN(C)C(=O)Nc1ccc2c(c1)OCO2	-6.8[16.7 µM]	-4.4
C[C@@H]1CN([C@@H](C)CO)C(=O)c2cc(NS(=O)(=O)c3ccc(Cl)cc3)ccc2O[C@H]1CN(C)S(=O)(=O)c1ccc(Cl)cc1	-39.9[16.7 µM]	-8.7
O=S(=O)(N[C@@H]1CCCN(Cc2cccc(OCCO)c2)C1)c1cc(Cl)ccc1Cl	-4.9[16.7 µM]	-1.6
C[C@@H]1CCCCO[C@H](CN(C)S(=O)(=O)c2ccc(F)cc2)[C@H](C)CN([C@H](C)CO)C(=O)c2cc(NC(=O)Nc3cccc4ccccc34)ccc2O1	-65.5[16.7 µM]	-10.3
C[C@@H]1CCCCO[C@H](CN(C)C(=O)Nc2cccc3ccccc23)[C@@H](C)CN([C@H](C)CO)C(=O)c2cc(NS(=O)(=O)c3cccs3)ccc2O1	14.9[16.7 µM]	-1.0
COc1cccc(-c2cnc3c(c2)C(=O)N([C@@H](C)CO)C[C@@H](C)[C@H](CN(C)Cc2ccccc2)O3)c1	9.6[16.7 µM]	-5.1
O=C(Cc1ccncc1)N[C@H]1CC[C@@H](CCn2cc(-c3ccccc3F)nn2)O[C@H]1CO	-3.2[16.7 µM]	5.5
CNC[C@H]1OCCCC[C@H](C)Oc2ccc(NC(=O)Nc3ccc(OC)cc3)cc2C(=O)N([C@@H](C)CO)C[C@@H]1C	0.9[16.7 µM]	18.9
C[C@@H]1CCCCO[C@H](CN(C)C(=O)CCCN(C)C)[C@H](C)CN([C@@H](C)CO)C(=O)c2cc(NC(=O)Nc3ccc(C(F)(F)F)cc3)ccc2O1	-12.8[16.7 µM]	21.3
Cc1noc(C)c1NC(=O)Nc1ccc2c(c1)C(=O)N([C@H](C)CO)C[C@@H](C)[C@@H](CN(C)Cc1ccccc1)OCCCC[C@@H](C)O2	7.6[16.7 µM]	12.0
COc1ccc(S(=O)(=O)Nc2ccc3c(c2)C(=O)N([C@@H](C)CO)C[C@@H](C)[C@H](CN(C)C(=O)NC(C)C)O3)cc1	8.6[16.7 µM]	0.0
COCC(=O)Nc1ccc2c(c1)C(=O)N(C)[C@@H]1CC[C@@H](CC(=O)NCC3CC3)O[C@H]1CO2	-19.3[16.7 µM]	7.1
COc1ccc(S(=O)(=O)N(C)C[C@@H]2OCCCC[C@@H](C)Oc3ccc(NS(=O)(=O)c4ccc(C)cc4)cc3C(=O)N([C@@H](C)CO)C[C@H]2C)cc1	6.9[16.7 µM]	-3.6
C[C@H](CO)N1C[C@H](C)[C@@H](CN(C)S(C)(=O)=O)Oc2c(NC(=O)Nc3ccc(F)cc3)cccc2C1=O	0.0[16.7 µM]	-4.4
CCCC(=O)Nc1ccc2c(c1)C(=O)N(C)[C@@H]1CC[C@H](CC(=O)NC3CCCC3)O[C@H]1CO2	-11.3[16.7 µM]	4.4
COc1ccccc1-c1cn(CC[C@@H]2CC[C@H](NC(=O)CCN3CCCCC3)[C@H](CO)O2)nn1	7.3[16.7 µM]	7.2
C[C@@H]1CN([C@@H](C)CO)C(=O)Cc2cc(NC(=O)Nc3ccc(C(F)(F)F)cc3)ccc2O[C@H]1CN(C)C(=O)Nc1ccc(C(F)(F)F)cc1	37.0[16.7 µM]	-11.0
C[C@@H]1CCCCO[C@@H](CN(C)CC2CCCCC2)[C@@H](C)CN([C@@H](C)CO)C(=O)c2cc(NC(=O)Nc3cccc4ccccc34)ccc2O1	3.0[16.7 µM]	14.5
COc1ccc(S(=O)(=O)N(C)C[C@@H]2OCCCC[C@@H](C)Oc3ccc(NC(=O)c4ccccc4)cc3C(=O)N([C@H](C)CO)C[C@@H]2C)cc1	-9.0[16.7 µM]	-13.5
C[C@@H]1CN([C@H](C)CO)C(=O)c2cc(-c3ccncc3)cnc2O[C@@H]1CN(C)C(=O)C1CC1	-14.1[16.7 µM]	-1.5
O=C(Nc1ccccc1)C1=C[C@@H](c2ccc3c(c2)Cc2ccccc2-3)C[C@@H](OCc2ccc(CO)cc2)O1	-27.6[16.7 µM]	1.0
C[C@H]1CN([C@@H](C)CO)C(=O)c2cc(C3=CCCCC3)cnc2O[C@@H]1CN(C)C(=O)Nc1ccccc1	-8.1[16.7 µM]	10.9
C[C@@H]1CN([C@@H](C)CO)C(=O)c2cc(NC(=O)Nc3ccccc3)ccc2O[C@H]1CN(C)Cc1ccc(-c2ccccc2)cc1	7.6[16.7 µM]	3.4
O=C(C[C@H]1C=C[C@H](NC(=O)Nc2ccc(F)cc2)[C@H](CO)O1)NCc1ccccn1	-12.3[16.7 µM]	-17.9
Cc1ccc(-c2cnc3c(c2)C(=O)N([C@H](C)CO)C[C@H](C)[C@@H](CN(C)Cc2ccccc2C(=O)O)O3)cc1	-21.5[16.7 µM]	8.4
C[C@@H]1CN([C@@H](C)CO)C(=O)Cc2cc(NC(=O)C3CCCCC3)ccc2O[C@H]1CN(C)S(C)(=O)=O	-0.2[16.7 µM]	8.5
COc1cccc(NC(=O)N[C@H]2CC[C@H](CC(=O)Nc3ccc(-c4ccccc4)cc3)O[C@H]2CO)c1	-9.4[16.7 µM]	-26.9
COc1ccc(NC(=O)Nc2ccc3c(c2)CC(=O)N([C@@H](C)CO)C[C@@H](C)[C@@H](CN(C)Cc2ccc(C(=O)Nc4ccccc4N)cc2)O3)cc1	-241.5[16.7 µM]	1.4
COc1cccc(S(=O)(=O)N[C@H]2CC[C@@H](CC(=O)NCc3ccc(F)cc3)O[C@H]2CO)c1	-3.5[16.7 µM]	-2.3
O=C(Nc1ccccc1)N[C@H]1CC[C@@H](CCNC(=O)c2ccccc2F)O[C@@H]1CO	-0.9[16.7 µM]	-5.0
CC(=O)N(C)C[C@H]1Oc2cc(C#Cc3cccc(F)c3)ccc2S(=O)(=O)N([C@H](C)CO)C[C@H]1C	6.4[16.7 µM]	11.0
COc1ccc(-c2cn(CC[C@@H]3CC[C@@H](NC(=O)Cc4ccccn4)[C@@H](CO)O3)nn2)cc1	6.3[16.7 µM]	0.1
C[C@@H]1CCCCO[C@H](CN(C)Cc2ccc(C(F)(F)F)cc2)[C@H](C)CN([C@@H](C)CO)C(=O)c2cc(NS(=O)(=O)c3cccs3)ccc2O1	?	1.2
C[C@@H]1CCCCO[C@@H](CN(C)S(=O)(=O)c2ccc(F)cc2)[C@H](C)CN([C@@H](C)CO)C(=O)c2cc(NS(=O)(=O)c3ccccc3)ccc2O1	-23.7[16.7 µM]	16.3
C[C@@H]1CCCCO[C@@H](CN(C)C(=O)Cc2ccccc2)[C@@H](C)CN([C@@H](C)CO)C(=O)c2cc(NS(C)(=O)=O)ccc2O1	9.3[16.7 µM]	3.7
C[C@H](CO)N1C[C@H](C)[C@H](CN(C)Cc2cccnc2)Oc2ncc(C#Cc3cccnc3)cc2C1=O	-17.5[16.7 µM]	-5.1
CCCNC(=O)C[C@H]1CC[C@@H]2[C@H](COc3ccc(NC(=O)C4CCCC4)cc3C(=O)N2C)O1	6.0[16.7 µM]	1.6
COC(=O)C(CC#Cc1ccc2c(c1)[C@]1(C(=O)N2)[C@H](C(=O)N2CCN(c3ncccn3)CC2)[C@H]2C(=O)O[C@H](c3ccccc3)[C@H](c3ccccc3)N2[C@@H]1c1ccc(O)cc1)C(=O)OC	16.3[16.7 µM]	10.6
COc1ccc(NC(=O)N[C@H]2C=C[C@@H](CC(=O)NC3CCC3)O[C@H]2CO)cc1	-10.9[16.7 µM]	-1.2
C[C@H]1CN([C@@H](C)CO)S(=O)(=O)c2ccc(-c3ccccc3)cc2O[C@H]1CN(C)Cc1ccncc1	-10.7[16.7 µM]	12.1
COc1ccc(NC(=O)N(C)C[C@@H]2OCCCC[C@H](C)Oc3ccc(NC(=O)C4CCCCC4)cc3C(=O)N([C@@H](C)CO)C[C@H]2C)cc1	-22.2[16.7 µM]	0.3
C[C@@H]1CN([C@@H](C)CO)C(=O)c2cc(NC(=O)Cc3ccccc3)ccc2O[C@@H](C)CCCCO[C@H]1CN(C)Cc1ccc2c(c1)OCO2	-15.9[16.7 µM]	2.3
COc1cccc(NC(=O)N(C)C[C@@H]2Oc3cc(-c4ccccc4F)ccc3S(=O)(=O)N([C@@H](C)CO)C[C@@H]2C)c1	5.4[16.7 µM]	2.2
C[C@@H]1CN([C@H](C)CO)C(=O)c2cc(C3=CCCC3)cnc2O[C@H]1CN(C)S(=O)(=O)c1cn(C)cn1	-21.5[16.7 µM]	-8.2
C/C=C/c1ccc2c(c1)O[C@@H](CN(C)Cc1ccccn1)[C@@H](C)CN([C@H](C)CO)S2(=O)=O	-7.1[16.7 µM]	-0.6
COCC(=O)N(C)C[C@@H]1Oc2cc(-c3ccc(C#N)cc3)ccc2S(=O)(=O)N([C@H](C)CO)C[C@H]1C	11.0[16.7 µM]	15.4
C[C@@H]1CCCCO[C@@H](CN(C)S(C)(=O)=O)[C@@H](C)CN([C@H](C)CO)C(=O)c2cc(NC(=O)c3ccccc3)ccc2O1	-5.2[16.7 µM]	-11.7
O=C(C[C@@H]1CC[C@@H](NS(=O)(=O)c2ccc(F)cc2)[C@@H](CO)O1)N1CCN(c2ccccc2)CC1	48.9[16.7 µM]	0.9
C[C@H](CO)N1C[C@H](C)[C@@H](CN(C)Cc2ccc(Oc3ccccc3)cc2)Oc2ccc(NC(=O)CCC(F)(F)F)cc2CC1=O	-5.0[16.7 µM]	16.8
O=C(Nc1ccc(F)cc1)Nc1ccc2c(c1)[C@@H]1C[C@@H](CC(=O)N3CCCCC3)O[C@@H](CO)[C@@H]1O2	-9.4[16.7 µM]	10.0
C[C@@H](NC(=O)C[C@H]1CC[C@@H](NC(=O)Cc2ccccn2)[C@H](CO)O1)c1ccccc1	-3.1[16.7 µM]	-13.4
COc1cccc(CNC(=O)C[C@@H]2CC[C@H](NC(=O)C3CC3)[C@@H](CO)O2)c1	-10.5[16.7 µM]	-5.8

# Continuation.
SMILES	HIV Env fusion	UUG fidelity
C[C@H](CO)N1C[C@H](C)[C@@H](CN(C)S(C)(=O)=O)OCCCC[C@H](C)Oc2ccc(NS(C)(=O)=O)cc2C1=O	11.0[16.7 µM]	12.1
C[C@H]1CCCCO[C@@H](CN(C)S(=O)(=O)c2ccc(Cl)cc2)[C@@H](C)CN([C@@H](C)CO)C(=O)c2cc(NS(C)(=O)=O)ccc2O1	-2.4[16.7 µM]	12.3
C[C@H]1CN([C@@H](C)CO)S(=O)(=O)c2ccc(C3=CCCC3)cc2O[C@@H]1CN(C)C(=O)Nc1ccc2c(c1)OCO2	-19.4[16.7 µM]	9.0
C[C@H](CO)N1C[C@H](C)[C@H](CN(C)S(=O)(=O)c2cn(C)cn2)Oc2ncc(-c3cccc(C(F)(F)F)c3)cc2C1=O	-14.1[16.7 µM]	1.9
C[C@@H]1CN([C@@H](C)CO)C(=O)c2cc(C3=CCCCC3)cnc2O[C@H]1CN(C)C(=O)c1ccc(F)cc1	4.6[16.7 µM]	19.9
Cc1noc(C)c1NC(=O)Nc1ccc2c(c1)CC(=O)N([C@@H](C)CO)C[C@@H](C)[C@@H](CN(C)C(=O)Nc1ccccc1)O2	9.1[16.7 µM]	2.1
C[C@H](CO)N1C[C@H](C)[C@H](CN(C)Cc2ccc3c(c2)OCO3)OCCCC[C@H](C)Oc2ccc(NC(=O)Nc3ccc4c(c3)OCO4)cc2C1=O	66.1*[16.7 µM]	13.1

# Fetched by structure from above (three):
SMILES	HIV Env fusion	UUG fidelity
C[C@@H]1CN([C@@H](C)CO)C(=O)c2cc(C3=CCCCC3)cnc2O[C@H]1CN(C)C(=O)c1ccc(F)cc1	4.6[16.7 µM]	19.9
Cc1noc(C)c1NC(=O)Nc1ccc2c(c1)CC(=O)N([C@@H](C)CO)C[C@@H](C)[C@@H](CN(C)C(=O)Nc1ccccc1)O2	9.1[16.7 µM]	2.1
C[C@H](CO)N1C[C@H](C)[C@H](CN(C)Cc2ccc3c(c2)OCO3)OCCCC[C@H](C)Oc2ccc(NC(=O)Nc3ccc4c(c3)OCO4)cc2C1=O	66.1*[16.7 µM]	13.1
